Screening data deposited in PubChem BioAssay by several laboratories.
RGS16-Gao: regulators of human RGS16-Galphao interaction. O15492+P09471. bead-based flow cytometry RGS16-Galphao binding, fluorescence; actives lie on both sides. binding response (% of control), % at 10 µM. actives 0.38% (n = 220,000);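 active = below 25% or above 175%, edge rows of some plates excepted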;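 also: Galphao activated by GDP with aluminum fluoride before binding; 100% = wells without compound and 0% = beads without RGS; some results beyond the cut were filed as inactive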
Target sequence (O15492 whole entry, looked up): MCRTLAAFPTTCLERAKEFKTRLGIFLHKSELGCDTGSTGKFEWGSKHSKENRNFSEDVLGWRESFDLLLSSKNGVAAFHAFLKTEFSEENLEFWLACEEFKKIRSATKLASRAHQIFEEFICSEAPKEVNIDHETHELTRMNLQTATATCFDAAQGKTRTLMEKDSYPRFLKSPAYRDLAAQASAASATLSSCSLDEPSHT
Target sequence (P09471 whole entry, looked up): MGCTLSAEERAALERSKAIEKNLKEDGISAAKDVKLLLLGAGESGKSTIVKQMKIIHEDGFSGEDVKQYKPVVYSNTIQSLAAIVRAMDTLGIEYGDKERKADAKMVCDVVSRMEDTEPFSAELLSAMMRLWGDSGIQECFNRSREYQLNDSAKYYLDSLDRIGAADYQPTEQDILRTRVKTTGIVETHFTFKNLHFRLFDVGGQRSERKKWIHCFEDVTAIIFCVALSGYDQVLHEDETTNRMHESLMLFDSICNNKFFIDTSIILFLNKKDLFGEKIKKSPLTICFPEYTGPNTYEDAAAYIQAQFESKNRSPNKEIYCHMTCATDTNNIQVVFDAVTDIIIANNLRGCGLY
Insulin prom inh: TRM-6 insulin promoter activity inhibition; TRM-6 cells (human fetal islet line), insulin promoter-eGFP reporter, imaging; reporter expression induced with tamoxifen; inhibition, % at 2 µM; actives 0.9% (n = 130,000);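 active = inhibition above the mean plus 3 SD, with well images judged a real hit on visual review, cut at about 60% in these data, passing the limit was not always enough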
PKD1 inh: inhibitors of human PKD1 kinase. Q15139. PKD1 kinase fluorescence polarization assay. inhibition, %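 (about 10 µM by stock and volumes)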. actives 0.056% (n = 200,000). AID 797;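 active = inhibition of 50% or more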;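 also: controls were vehicle for no effect and a reference inhibitor for full effect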
HSV replic up: HSV replication enhancement; HSV replication augmentation in cells, fold increase; maximum fold increase; actives 0.005% (n = 220,000); AID 1956;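 active = peak rise of 1.5-fold or more in the series; tested in PC3 cells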;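 also: first round at 10 µM; read as green reporter fluorescence; hits show the peak of a series up to 25 µM; 1 = signal of infected wells without compound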
GALR2 agonist: agonists of human galanin receptor 2 (GALR2) | GALR2-expressing cells, agonist activation read-out | activation, %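 (tested at 5 µM)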 | actives 0.48% (n = 140,000);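 active = above mean plus 3 SD of all compounds, about 5% in these data, not always enough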;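 also: 0% = vehicle buffer wells and 100% = reference agonist at full effect; tested in CHO reporter cells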
Target sequence (O43603 whole entry, looked up): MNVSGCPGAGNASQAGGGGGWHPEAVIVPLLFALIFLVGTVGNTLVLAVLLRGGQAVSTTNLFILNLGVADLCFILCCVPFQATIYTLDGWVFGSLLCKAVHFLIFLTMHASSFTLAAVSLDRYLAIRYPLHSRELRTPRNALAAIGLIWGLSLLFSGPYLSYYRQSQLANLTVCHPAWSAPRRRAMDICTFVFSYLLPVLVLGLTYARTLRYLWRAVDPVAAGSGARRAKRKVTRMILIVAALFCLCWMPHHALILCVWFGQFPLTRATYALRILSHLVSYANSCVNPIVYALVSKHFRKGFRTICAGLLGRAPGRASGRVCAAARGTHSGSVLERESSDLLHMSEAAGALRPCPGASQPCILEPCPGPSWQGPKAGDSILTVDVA
Insulin prom inh cell count: second read-out of Insulin prom inh, no call of its own (marks repeat the call); normalized cell count, %; measured here: cell count, toxicity; reference of the scale not given here;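 cells exposed to compound for 48 h; stained nuclei by imaging scaled within each plate; lower means fewer cells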
HSV replic up primary fold: further read-out of HSV replic up, marked with its call; fold increase; compound at 10 µM; measured here: primary screen fold increase 10 uM; tested in PC3 cells;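 GFP signal in the first replicate; 1 = infected wells without compound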
Numbers without * were called inactive; i = inactive; x = not tested or not shown.

Values run as follows: RGS16-Gao	Insulin prom inh	Insulin prom inh cell count	PKD1 inh	HSV replic up	HSV replic up primary fold	GALR2 agonist
- Cc1nc(CN2CCN(Cc3nc(C(c4ccccc4)c4ccccc4)no3)CC2)cs1
→ 104	x	x	-5	i	0.93	x
- N/C(=N\OC(=O)CCCOc1ccccc1)c1ccc(Br)cc1
→ 96	-46	126	-2	i	1	-2.7
- COc1ccccc1NS(=O)(=O)c1cc(NC(=O)CCC(=O)c2cccs2)ccc1Cl
→ 103	-17	114	-3	i	0.95	-0.3
- CC(=O)Nc1nc(C)c(C(C)=O)s1
→ 104	21	71	0	i	0.83	-0.9
- Cc1ccc(C)c(OCc2nc3ccccc3[nH]2)c1
→ 111	x	x	-5	i	1	x
- COc1ccc(N2CCN(C(CNC(=O)c3ccco3)c3cccnc3)CC2)cc1 (configuration not stated)
→ 102	0	32	-2	i	0.94	-1.0
- COc1ccc(-n2c(Cc3cccn3C)nnc2SCC(=O)Nc2ccc(F)cc2F)cc1
→ 101	x	x	-14	i	1.1	-1.2
- NS(=O)(=O)c1cccc(NC(=O)c2cc3ccccc3o2)c1
→ 101	x	x	-8	i	1	x
- Cc1nn(C(C)c2n[nH]c(=S)n2-c2cccc(Cl)c2)c(C)c1[N+](=O)[O-] (configuration not stated)
→ 100	-95	120	-14	i	0.92	-0.9
- C=CCCC(=O)Nc1nc(C)c(-c2csc(Nc3cc(Cl)ccc3OC)n2)s1
→ 101	-7	85	-1	i	0.84	-0.7
- COc1ccc2cc3cc(C(=O)NCCN4CCN(c5ccccc5F)CC4)oc3nc2c1
→ 101	22	78	-6	x	x	-1.9
- Cc1cc(C)cc(NC(=S)N=Nc2c(O)n(C)c3ccc(S(=O)(=O)N4CCOCC4)cc23)c1
→ 66	x	x	-10	i	0.99	0.4
- CCOC(=O)C1=C(CC)Nc2ccccc2N=C1NC(=O)Cn1cnc2ccccc2c1=O
→ 99	39	129	8	i	1.1	-1.1
- Cc1cc(-c2nn(-c3ccccc3F)cc2CNCCc2cnc[nH]2)c(C)s1
→ 102	x	x	6	i	1	x
- O=C(Nc1ccc(Br)c2ccccc12)c1ccc2ccccc2c1O
→ 138	x	x	x	i	1.1	x
- Cc1cc(C)cc(Nc2ccc([N+](=O)[O-])nc2[N+](=O)[O-])c1
→ 102	x	x	-1	i	1.1	-2.9
- O=C(N/N=C1\CCCc2ccccc21)C(O)c1ccccc1 (configuration not stated)
→ 107	x	x	-6	i	0.66	-1.3
- CCN(CCCNC(=O)CCCn1c(=O)[nH]c2ccccc2c1=O)c1cccc(C)c1
→ 102	x	x	3	i	0.85	-0.1
- CC(=O)N1C(=O)C2(Nc3ccccc3N2)c2ccccc21
→ 112	-54	61	-2	i	0.85	-0.2
- Cc1cnc(C(=O)OCC(=O)NC23CC4CC(CC(C4)C2)C3)cn1
→ 111	-3	94	6	i	1.1	-1.9
- COc1ccc(Cc2nnc3n2N=C(c2cc4ccccc4o2)CS3)cc1OC
→ x	40	106	-8	i	1	-0.4
- Cc1ccc(/C=N\n2c(-c3ccccc3)n[nH]c2=S)s1
→ 103	38	98	-6	i	0.99	-1.2
- COc1cccc(N2CCN(C(=O)CN(c3ccc(C)cc3)S(=O)(=O)c3c(C)n[nH]c3C)CC2)c1
→ 110	x	x	-8	i	0.95	-1.6
- Cc1nn(-c2ccccc2)c2sc(C(=O)OC3CCOC3=O)cc12 (configuration not stated)
→ 90	-12	112	3	x	x	-1.1
- CN(Cc1nc(-c2cnccn2)no1)Cc1n[nH]c2c1CCCCC2
→ 99	x	x	x	i	0.85	x
- CN(Cc1cccc(-n2cccn2)c1)Cc1cn(C)nc1-c1ccccc1F
→ 125	x	x	3	i	1	x
- CC(=O)OC(COc1ccc(F)cc1)Cn1cnc2ccccc21 (configuration not stated)
→ 102	x	x	-5	i	0.97	x
- c1cc2c3c(cccc3c1)NC1(CCCCCC1)N2
→ 80	19	119	-1	i	1.1	-1.0
- Cc1ccsc1C1C(C#N)=C(N)OC2=C1C(=O)CC(C)(C)C2 (configuration not stated)
→ 118	0	62	0	i	0.88	x
- O=C1NC(SCCCF)=N/C1=C/c1ccc(-n2cncn2)cc1
→ 104	x	x	x	i	0.88	x
- Cc1ccc(S(=O)(=O)N2CCN(C(=O)N(c3ccccc3)c3ccccc3)CC2)cc1
→ 102	-23	134	-6	i	0.96	-0.5
- O=C(NC(NCC1CCCO1)C(Cl)(Cl)Cl)c1cccc2ccccc12 (configuration not stated)
→ 106	-38	59	-3	i	1	-2.7
- O=C(CCc1nnc(Cc2ccc(-c3ccccc3)cc2)o1)NCCc1ccccn1
→ 85	x	x	2	i	0.97	x
- Cn1c(=O)c2c(O)cc(=O)[nH]c2n(-c2ccccc2)c1=O
→ 92	39	68	-7	x	x	-1.8
- O=C1CCC(=O)N1CN(Cc1ccco1)CN1C(=O)CCC1=O
→ 102	-29	111	0	i	0.98	-2.8
- COc1ccc(OCCNc2c([N+](=O)[O-])c(=O)oc3ccccc23)cc1
→ 99	x	x	4	i	0.82	x
- Oc1cccc2ccc(Nc3ccccn3)nc12
→ 92	x	x	-1	i	0.56	-1.6
- CCN(CC)c1nc(C)nc2c1sc(=S)n2C
→ 92	x	x	5	i	0.79	x
- CC(C)c1ccc(CNC(=O)C(=O)NCC2CCCO2)cc1 (configuration not stated)
→ 101	31	122	-2	i	0.94	x
- Cc1ccc(NC(=O)c2ccc(NCCCN3CCC(C)CC3)c([N+](=O)[O-])c2)cc1F
→ 100	33	51	5	i	0.96	x
- NC(=O)c1ccc(NC(=O)CSc2nnc(-c3ccncc3)n2Cc2ccco2)cc1
→ 92	x	x	x	i	0.86	x
- COc1ccccc1-n1c(=S)[nH]c2c(sc(=S)n2-c2ccc(C)cc2C)c1=O
→ 94	11	94	-10	i	1.2	x
- C=CCc1cc(/C=C2/NC(=S)NC2=O)cc(OC)c1O
→ 106	x	x	-1	x	x	-1.6
- O=C(CN1C(=O)c2ccccc2S1(=O)=O)Nc1ccccc1
→ 99	9	110	-12	i	1.2	-2.2
- Cc1cc(-c2n[nH]c(=S)n2/N=C/c2ccccc2[N+](=O)[O-])n[nH]1
→ 96	-6	129	1	i	1.4	-0.5
- CCC(=O)N1CCN(c2ccccc2NC(=O)COc2ccccc2Cl)CC1
→ 100	-9	73	4	i	0.76	1.1
- Cn1nc(C(F)(F)F)c(C(=O)Nc2ccc(F)cc2F)c1Sc1ccc(Cl)cc1
→ 94	x	x	-6	i	1.1	-0.8
- COc1ccc(-c2noc(-c3ccc4c(c3)OCO4)n2)cc1
→ 106	36	87	-2	i	0.92	0.3
- CCCCNC(=S)N(C)/N=C/c1ccc(OCC(=O)Nc2c(C)cc(C)cc2C)c(OC)c1
→ 101	x	x	2	i	0.89	-1.0
- CN(C)c1cc[n+](CCC(=O)Nc2cccc([N+](=O)[O-])c2N)cc1
→ 116	0	115	2	i	0.9	-0.2
- CCC(=O)N(CCN1CCOCC1)Cc1cc2cc3c(cc2nc1Cl)OCO3
→ 101	-121	75	-6	i	0.98	x
- O=C(C1=C[C@H](c2csc3ccccc23)C[C@H](OCCCCO)O1)N1CCOCC1
→ 99	x	x	7	i	0.89	x
- CC(C)[N+](C)(CCOC(=O)C1c2ccccc2Oc2ccccc21)C(C)C
→ 102	-19	161	-3	i	0.93	-0.6
- O=C(CCCCCNc1nc(=S)[nH]c2ccccc12)NCCC1=CCCCC1
→ 102	-14	109	-5	i	0.96	x
- COC(=O)[C@@H]1C[C@@]2(O)[C@@H](O)[C@@H](O)[C@@H](O)C[C@H]2N1Cc1ccc(C(F)(F)F)cc1
→ 103	x	x	x	i	0.86	x
- O=C1Nc2ccc(Br)cc2C12NNc1ccccc1O2 (configuration not stated)
→ 96	x	x	8	i	1.2	x
- Cc1ccc(C)c(C2C(C#N)=C(N)Oc3cc(C)oc(=O)c32)c1 (configuration not stated)
→ 98	21	110	-8	i	0.93	-2.3
- CCC(=O)NC(NC(=S)Nc1cccc2cccnc12)C(Cl)(Cl)Cl (configuration not stated)
→ 100	-13	124	-6	i	0.91	-1.4
- OCC1(Cc2ccccc2)CCN(Cc2cc3ccccc3o2)CC1
→ 100	x	x	-1	i	0.93	x
- Cc1ccc(C(=O)NC(=S)Nc2ccc3[nH]c(=O)[nH]c3c2)c(C)c1
→ 108	x	x	-5	i	1	x

Following part
Values run as follows: RGS16-Gao	Insulin prom inh	Insulin prom inh cell count	PKD1 inh	HSV replic up	HSV replic up primary fold	GALR2 agonist
- Cc1ccc(NC2=C(Cl)C(=O)OC2OC(C)C)c(C)c1 (configuration not stated)
→ 107	x	x	-17	i	1.2	0.0
- NS(=O)(=O)c1cccc(NC(=O)COC(=O)C2CCCCC2)c1
→ 104	x	x	-7	i	0.95	x
- CC(=O)c1ccc(C(=O)N(CCN(C)C)c2nc3c(Cl)cccc3s2)cc1
→ 101	28	129	2	i	1.1	x
- O=C(COC(=O)c1cccnc1)Nc1ccc(F)cc1
→ 102	13	136	-10	i	0.92	-1.6
- O=C(NC1CCCCC1)C(c1ccc(F)cc1)N(CCc1ccccc1)C(=O)CN1C(=O)c2ccccc2S1(=O)=O (configuration not stated)
→ 116	-131	9	-7	i	1.1	0.5
- Nn1c(SCc2cccc(Cl)c2)nnc1-c1ccncc1
→ 103	x	x	x	i	1	x
- N#Cc1cccc(OCC(=O)NC(=O)NCc2ccccc2)c1
→ 101	30	54	-3	i	0.98	x
- COC(=O)c1c(C)oc(C)c1S(=O)(=O)Nc1ccccc1
→ 105	x	x	x	i	1.2	x
- CN(C)c1ccc(C(=O)NC2(N3CCC3=O)CCCC2)cc1
→ 44	13	111	-1	i	1.1	x
- O=C(CN(C1CCCCC1)S(=O)(=O)c1ccc(F)cc1)Nc1ccc2c(c1)OCO2
→ 101	-6	98	-3	i	0.96	-2.9
- O=C(CC(c1ccc(F)cc1)c1ccco1)N1CCCC1 (configuration not stated)
→ 96	x	x	-2	i	0.95	-2.3
- CCOc1ccc(CC(=O)C2C(=O)CCCC2=O)cc1OCC
→ 59	0	180	1	i	0.95	-3.9
- C=CCc1cccc(C=Nc2cccn3cc(-c4ccccc4)nc23)c1O
→ 98	x	x	6	i	0.91	x
- COc1ccc(N2CCC(CNC(=S)Nc3cccc(C)c3)C2)cc1 (configuration not stated)
→ 88	-50	83	1	i	0.97	-0.3
- CN=C1C=C/C(=N/N=c2\ccn(O)cc2C)C=C1C
→ 102	x	x	x	i	1.1	x
- COc1ccc(C(=O)NCc2c(CC(C)C)oc(C)c2C(=O)O)cc1
→ 97	8	77	5	i	0.91	-1.7
- Cc1ccccc1-n1c(-c2csc3ccccc23)n[nH]c1=S
→ 108	13	116	-18	i	0.93	-0.1
- c1ccc(-c2n[nH]nc2-c2ccccc2)cc1
→ 104	-305	171	-2	i	0.85	-0.1
- CCc1ccccc1NC(=O)CSc1n[nH]c(C)c1[N+](=O)[O-]
→ 92	x	x	4	i	0.94	-0.3
- O=C(O)c1nn(CCSc2ccccc2F)c(=O)c2ccccc12
→ 100	x	x	x	i	0.95	x
- CC(C(=O)O)N1C(=O)/C(=C/C=C/c2ccco2)SC1=S (configuration not stated)
→ 96	-3	97	9	i	1.3	-2.0
- N/C(Cn1cncn1)=N\NC(=O)C(=O)Nc1cccc(C(F)(F)F)c1
→ 100	x	x	-4	i	1	x
- S=C(NCc1ccc2c(c1)OCO2)NCc1ccco1
→ 101	x	x	-1	i	1	x
- CC(=O)Nc1cccc(NC(=O)CSc2nn3c(=O)c(C)nnc3s2)c1
→ 93	x	x	x	i	0.85	x
- CC(C)C(=O)NS(=O)(=O)c1ccc(NS(C)(=O)=O)cc1
→ 92	x	x	x	i	1	x
- COC(=O)c1c(NS(C)(=O)=O)sc2c1CCCC2
→ 98	67	112	1	i	0.96	-1.0
- O=C(O)c1cccc(-n2cccc2/C=C2\SC(=O)N(Cc3ccccc3F)C2=O)c1
→ 100	-100	189	-8	i	0.91	-1.8
- CN=C(c1ccc(C)cc1)n1c(=S)nc(-c2ccc(C)cc2)n(C)c1=S
→ 112	-80	65	5	i	0.96	x
- CC#CC[N+](C)(C)CCCCCCCCCC
→ 156	x	x	x	i	0.84	x
- CCNC(=S)N1CCCC(c2nc3ccc(C)cc3[nH]2)C1 (configuration not stated)
→ 106	x	x	-5	i	0.96	x

Rewritten as labelled records: part of the list above
CC(=O)Nc1cccc(NC(=O)CSc2nn3c(=O)c(C)nnc3s2)c1
  RGS16-Gao: 93; Insulin prom inh: x; Insulin prom inh cell count: x; PKD1 inh: x; HSV replic up: i; HSV replic up primary fold: 0.85; GALR2 agonist: x

S=C(NCc1ccc2c(c1)OCO2)NCc1ccco1
  RGS16-Gao: 101; Insulin prom inh: x; Insulin prom inh cell count: x; PKD1 inh: -1; HSV replic up: i; HSV replic up primary fold: 1; GALR2 agonist: x

O=C(CN(C1CCCCC1)S(=O)(=O)c1ccc(F)cc1)Nc1ccc2c(c1)OCO2
  RGS16-Gao: 101; Insulin prom inh: -6; Insulin prom inh cell count: 98; PKD1 inh: -3; HSV replic up: i; HSV replic up primary fold: 0.96; GALR2 agonist: -2.9
